NS1 inh: inhibitors of influenza NS1 protein function; Potency, µM (titrated, usually from 46.1 µM), for inactives: top-dose activity, positive = more growth; 270,000 tested, 0.4% active; S. cerevisiae slowed by influenza A NS1, growth recovery by OD600; also: actives are rising curves; nearly all actives have a fitted effect of over 50% in size
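Read-out: OD600 growth recovery of NS1-expressing budding yeast. Cells grown overnight at 30C in -URA glucose medium, washed, resuspended and diluted 1:100 in 2% galactose assay medium, pH 6.0. Same strain lacking NS1 served as positive control.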
SARS PLP yeast: blocks SARS-CoV papain-like protease in a yeast assay. S. cerevisiae expressing SARS-CoV PLpro, growth rescue; control for the full effect not named in the record. Potency, µM (highest dose often 32.9 µM), without a hit: at the highest dose activity, positive = growth rescue. 330,000 tested, 0.19% active. AID 485353; also: 0% is about no effect; nearly all actives have a fitted effect of over 55% in size; growth read by luminescence after 48 h
Cruzain inh noDet: blocks cruzain activity in detergent-free assay | P25779 | purified cruzain, Z-FR-AMC fluorescence, no detergent | Potency, µM, for inactives: max response, negative = inhibition, most hits filed as inhibitors | 200,000 tested, 2.3% active; active = well fitted curve in the direction sought with a large enough effect; inconclusive = small, poorly fitted or top-dose-only effect, or another doubt; inactive = no such curve, though single readings can be large; an effect the other way counts as inactive or inconclusive;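 also: plate controls were enzyme without inhibitor for no effect and buffer without enzyme for full effect; nearly all actives have a fitted effect of over 40% in size; top concentration of the series not given in the record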
Target sequence (P25779 123-467 limits assumed): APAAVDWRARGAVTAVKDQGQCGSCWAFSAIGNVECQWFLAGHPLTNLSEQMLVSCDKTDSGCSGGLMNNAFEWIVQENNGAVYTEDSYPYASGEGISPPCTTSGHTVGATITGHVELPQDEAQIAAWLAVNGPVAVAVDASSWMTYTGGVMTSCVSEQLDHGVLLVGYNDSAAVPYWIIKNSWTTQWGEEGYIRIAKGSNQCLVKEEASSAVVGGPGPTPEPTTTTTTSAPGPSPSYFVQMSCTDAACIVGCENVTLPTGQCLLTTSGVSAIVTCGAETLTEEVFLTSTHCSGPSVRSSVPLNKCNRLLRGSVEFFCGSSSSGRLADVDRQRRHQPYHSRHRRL
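Purified cruzain at 1.5 nM, pre-incubated 15 min with compound at room temperature in 100 mM sodium acetate pH 5.5, 5 mM DTT, 0.00005% Triton X-100. Reaction started with 2 uM Z-FR-AMC; AMC fluorescence increase over 60 s gives rate.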
Marburg entry inh: inhibitors of Marburg virus binding or cell entry. Marburg virus pseudotyped entry inhibition, cell reporter; control for the full effect not named in the record; about a third of the inactives were read at about 46 µM. Potency, µM (series often up to 37.8 µM), without a hit: top-dose activity change, negative = inhibition, most hits filed as inhibitors. 300,000 tested, 1.8% active; active = well fitted inhibition curve with a large enough effect; inconclusive = small, poorly fitted or top-dose-only effect, or effect the other way; inactive = flat fitted curve, though single readings scatter; tested in HEK293 cells; about a fifth of its hits are not listed in these tables; also: % is scaled to controls: 0 for no effect and ±100 for the full control effect; luciferase read-out
RE007 growth inh: less growth of the S. pombe RE007 Vpr strain. S. pombe RE007 Vpr strain, BacTiter-Glo ATP luminescence, 24 h; control for the full effect not named in the record. Potency, µM (highest dose often 92.2 µM), for inactives: at the highest dose activity change, negative = less growth. 360,000 tested, 0.21% active. AID 651644; active = well fitted falling curve with a large enough effect; inconclusive = small, poorly fitted or top-dose-only effect; inactive = no such curve, though single readings can be large or run the other way;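 also: % is scaled to controls: 0 for no effect and ±100 for the full control effect; nearly all actives have a fitted effect of over 50% in size; the assay follows cell death caused by Vpr and the record does not say whether a fall means rescue or toxicity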
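Fission yeast RE007 carrying one integrated HIV-1 vpr copy, seeded at OD 0.01 in PMG+AL medium with 23 nL pinned compound. Grown 24 h at 30 degrees; viability read by BacTiter-Glo luminescence after 5 min.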
StopGo reporter: lowers the luciferase signal of an FMDV 2A StopGo reporter. human cells with a luciferase reporter of 2A StopGo recoding; control for the full effect not named in the record. Potency, µM (series often up to 57.9 µM), without a hit: at the top dose signal change, negative = less light. 410,000 tested, 1.2% active. AID 1159524; active = well fitted falling curve with a large enough effect; inconclusive = small, poorly fitted or top-dose-only effect; inactive = no such curve, though single readings can be large or run the other way; tested in HEK293T cells; also: % is scaled to controls: 0 for no effect and ±100 for the full control effect; nearly all actives have a fitted effect of over 45% in size; luciferase light after 4 h
Cruzain inh Det: cruzain (T. cruzi) inhibition with detergent; purified cruzain, Z-FR-AMC fluorescence, 0.01% Triton; Potency, µM, for inactives: max response, negative = inhibition, hits mostly inhibitors; P25779; 200,000 tested, 0.43% active; active = well fitted curve in the direction sought with a large enough effect; inconclusive = small, poorly fitted or top-dose-only effect, or another doubt; inactive = no such curve, though single readings can be large; an effect the other way counts as inactive or inconclusive;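 also: plate controls were neutral wells for no effect and buffer without enzyme for full effect; nearly all actives have a fitted effect of over 40% in size; top concentration of the series not given in the record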
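Enzyme 1.5 nM, Z-FR-AMC 2 uM, NaOAc 100 mM pH 5.5, DTT 5 mM, Triton X-100 0.01%; 15 min RT compound preincubation; kinetic ex360/em450, 60 s delta.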
LASV entry inh: inhibitors of Lassa virus binding or cell entry; Potency, µM (top dose mostly 37.9 µM), inactives show at the top dose activity change, negative = inhibition, hits mostly inhibitors; AID 540256; Lassa virus pseudotype entry inhibition, cell reporter; control for the full effect not named in the record; 300,000 tested, 1.2% active; active means well fitted inhibition curve with a large enough effect; inconclusive means small, poorly fitted or top-dose-only effect, or effect the other way; inactive means flat fitted curve, though single readings scatter; tested in HEK293 cells; also: % is scaled to controls: 0 for no effect and ±100 for the full control effect; nearly all actives have a fitted effect of over 50% in size; luciferase read-out
* = called active by the depositor; ? = inconclusive; . = not tested or not shown; & = joins results of further samples; [ ] = another dose, or the depositor's remark. Unless noted, calls follow the shape of the dose curve; as a rule, active means well fitted rising curve with a large enough effect; inconclusive means small, poorly fitted or top-dose-only effect; inactive means no such curve, though single readings can be large or run the other way. Potency is read from the fitted curve at half-maximal effect.

No.	Molecule	NS1 inh	SARS PLP yeast	Cruzain inh noDet	Marburg entry inh	RE007 growth inh	StopGo reporter	Cruzain inh Det	LASV entry inh
1	C#Cc1cccc(NC(=O)CSc2nnc(-c3ccc(C(F)(F)F)cn3)o2)c1	4%	-3%	.	.	6%	2%	.	.
2	COC(=O)CCn1cnc2onc(-c3cc(F)cc(F)c3)c2c1=O	.	.	-5%	-2%[46.1 µM]	.	-1%	-2.8%	0%[46.1 µM]
3	COc1ccc(C(F)(F)F)cc1N/C=C/c1nnnn1-c1ccc2ccccc2c1	2%	-1%	.	6%	-2%	-7%	.	-3%
4	COc1ccc(CNC(=O)c2ccc(Br)o2)cc1	-52%	-20%	-5%&5%	-9%	12%	17%	-0.1%&-1.5%	?
5	O=S(=O)(c1cc(C(F)(F)F)ccc1Cl)N1CCN(c2ncnc3ccccc23)CC1	.	2%	.	-28%	-21%	?	.	?
6	O=C(Nc1cccc(O)c1)c1noc2c1CCc1ccccc1-2	-31%	-8%	-17%&-16%	?	-3%	-38%	?	?
7	N#Cc1cccc2c1-c1ccccc1/C2=N/NC(N)=S	6%	-2%	.	?	3%	35µM*	.	?
8	Cc1csc(NC(=O)CCn2c(=O)oc3ccc(Cl)cc32)n1	11%	2%	.	.	1%	-17%	.	.
9	O=S1(=O)CCC(n2nccc2-c2ccccc2)C1 (stereo not drawn)	2%	2%	.	0%[46.1 µM]	7%	-10%	.	10%[46.1 µM]
10	CCOc1ccc(NC(=O)CSc2nc(O)c(C)c(=O)n2-c2ccc(F)cc2)cc1	-11%	-2%	.	?	6%	-8%	.	8%
11	CCOC1(/N=C(\C)NS(=O)(=O)c2ccc(Cl)cc2)C(C)=CC(=O)C=C1C	.	5%	.	?	10%	7%	.	2%
12	CCOc1ccc(NC(=O)Cn2nnc(-c3ccccc3F)n2)cc1	3%	22%	-2%	23%	-15%	.	-1.8%	-11%
13	Brc1cccc(CN2CCCCCCC2)c1	-30%	0%	-4%	5%	-13%	-11%	4.5%	-3%
14	COCCn1cnc2c(c1=O)c1nc3ccccc3nc1n2/N=C/c1cccc(OC)c1	2%	-2%	.	?	-16%	28µM*	.	?
15	O=c1[nH]c(C2CCN(S(=O)(=O)c3ccccc3F)CC2)nc2c1nnn2Cc1ccc(F)cc1	18%	9%	.	?	-8%	-23%	.	-13%
16	COc1ccc(S(=O)(=O)N2CCOCC2)cc1NC(=O)COC(=O)CCS(=O)(=O)c1ccc(C)cc1	.	.	.	5%	18%	-7%	.	-1%
17	COc1ccc(C2C(=O)N(C3CCCCC3)CC(=O)N2C2CCCCC2)cc1 (stereo not drawn)	2%	-2%	-1%&-9%	-11%&-11%	1%	-15%&-9%	0.1%&-3.6%	-1%[46.1 µM]
18	NC(=O)CCS(=O)(=O)CCN1CCCCC1	5%	0%	-7%	?	-2%	-22%	-2.5%	1%
19	Cc1cc(N2CCCC2)nc2c(C)cccc12	4%	0%	.	24%[46.1 µM]	-22%	-11%	.	-7%
20	O=C(O)c1ccccc1C(c1ccccc1)c1ccccc1O (stereo not drawn)	.	.	.	-23%[46.1 µM]	3%	-12%	.	-20%[46.1 µM]
21	COc1cccc(CNc2nnnn2C)c1	15%	10%	.	?	6%	-20%	.	29%
22	CO/N=C(\Cn1ncc(N2CCCC2)c(Br)c1=O)c1ccc(Cl)cc1	-79%	-34%	?	-10%	38%	-10%	-0.1%	-20%
23	CC(Oc1ccccc1F)C(=O)/C=C/N(C)C (stereo not drawn)	7%	3%	-6%	2%	9%	?	-1.0%	6%
24	COCCCNc1nc(=S)[nH]c2cc(OC)c(OC)cc12	0%	8%	-3%	-8%	-3%	-9%	-0.6%	4%
25	CC1CCN(C(CNS(=O)(=O)c2ccccc2)c2ccccc2)CC1 (stereo not drawn)	.	3%	.	?	11%	-6%	.	-2%
26	COc1ccc(CCN2CCCC(CN(C)Cc3cc(Cl)c(O)c(OC)c3)C2)cc1 (stereo not drawn)	10%	-9%	.	.	-10%	10%	.	.
27	Cc1nn(Cc2cccc(C(=O)NN)c2)c(C)c1Cl	5%	-1%	.	?	11%	0%	.	?
28	O=C1CCCC(=O)C1C1c2ccccc2CCN1C(=O)CCl (stereo not drawn)	-3%	3%	.	17%	20%	-14%	.	20%
29	O=C(NCCc1ccccc1)C1CC(=O)N(c2ccc3c(c2)OCCO3)C1 (stereo not drawn)	.	2%	.	11%	-7%	-24%	.	25%
30	COc1ccnc(CN(C)C(=O)C2CCC(=O)N(Cc3cccc(C(F)(F)F)c3)C2)c1 (stereo not drawn)	3%	-2%	.	1%[46.1 µM]	-4%	7%	.	11%[46.1 µM]
31	CCOc1ccc(CCNC(=O)C2CCN(C(=O)N3CC(CC)Oc4ccccc43)CC2)cc1 (stereo not drawn)	.	.	-25%	.	.	-2%	-10%	?
32	COc1ccc(-c2nc(SCCOc3ccccc3Cl)n3[nH]c(=O)cc3n2)cc1	.	.	?	.	.	-22%	-1.6%	17%[46.1 µM]
33	COc1ccccc1CNC(=O)c1cc2cccc3c2n1CCS3	.	.	25µM*	.	.	-22%	-8.2%	?
34	O=C(CSc1nc2ccccc2o1)NCC(=O)c1ccccc1	-5%	0%	2%	4%	-2%	0%	-5.4%	6%
35	COc1ccc(NS(=O)(=O)c2ccc3nc(COc4ccc(C#N)cc4)[nH]c3c2)cc1	19%	2%	?	-31%	3%	-17%	-7.0%	-8%
36	CCOC(=O)C1CCN(C2CC(=O)N(c3ccc(OCC)cc3)C2=O)CC1 (stereo not drawn)	-61%	-91%	11%	8%	18µM*	-11%	1.5%	10%
37	CC(C)(C)N(Cc1nc(-c2ccccc2)no1)C(=O)c1ccc2c(c1)OCO2	-28%	-13%	.	4%	21%	-17%	.	?
38	O=C(O)C1C2C=CC(C2)C1C(=O)N1CCc2ccccc21 (stereo not drawn)	?	3%	-5%	-1%	0%	9%	6.6%	5%
39	CCOCCc1nnc(NC(=O)CSc2ccccc2)s1	-12%	-2%	-8%	-9%[46.1 µM]	25%	9%	0.5%	-23%
40	COC(=O)CCCC(=O)N1CCCC(CNS(=O)(=O)c2ccc(OC)cc2)C1 (stereo not drawn)	-4%	-1%	.	.	-7%	50%[activator]	.	.
41	Clc1ccc(CSc2nncn3c2cc2occc23)cc1	.	.	0%	.	.	0%	-13%	4%[46.1 µM]
42	COCCNC(=O)C(OC(=O)c1ccco1)c1ccccc1F (stereo not drawn)	0%	-3%	.	11%	0%	-3%	.	6%
43	O=C(NCCc1ccccc1)C(=O)NCC1(c2ccccc2)CCCC1	-4%	-1%	-7%	2%	-8%[3.69 µM]	1%	3.0%	1%
44	C#CCN(C(=O)c1ccc(OC)c(OC2CCN(C(C)C)CC2)c1)C1CCCCC1	1%	0%	.	-18%	-5%	-21%	.	-20%
45	CC(C)CSc1nc2ccccc2n1CC(N)=O	1%	-5%	0%	1%	-11%	-2%	-2.2%	5%
46	Cc1ccc(Oc2ncc(CN3CC(C)OC(C)C3)s2)cc1 (stereo not drawn)	-19%	4%	0%	?	-17%	-18%	1.3%	-24%
47	CCC(CC)C1C(C#N)=C(N)Oc2n[nH]c(C)c21 (stereo not drawn)	-3%	7%	-2%	?	9%	35µM*	2.3%	-19%
48	O=C(COc1ccccc1)NCC(=O)N/N=C/c1ccco1	?	-10%	5%	14%	7%	-22%	-1.8%	9%
49	CC(C)OC(=O)CN1C(=O)S/C(=C/c2ccc(N3CCCCC3)o2)C1=O	-114%	-28%	9%	-19%	-12%	.	?	?
50	Cc1ccc(S(=O)(=O)NCCNc2ccc([N+](=O)[O-])cc2)cc1	-12%	1%	.	.	3%	3%	.	.
51	OC12Oc3ccccc3C=C1N1CCC2CC1 (stereo not drawn)	-2%	5%	2%	16%[46.1 µM]	-5%	-5%	4.9%	-1%
52	CCOC(=O)c1[nH]c(C)c(C(=O)OCC(=O)N2CC(=O)Nc3ccccc32)c1C	0%	-1%	-4%	?	0%	-13%	-6.3%	9%
53	COc1ccc2cc3cc(C(=O)NCc4ccccc4OC)oc3nc2c1	.	.	8%	1%[46.1 µM]	.	?	-2.0%	?
54	COc1ccc(CC(=O)OC(C)C(=O)c2ccc(C)cc2)cc1 (stereo not drawn)	-5%	-5%	.	0%[46.1 µM]	-6%	-5%	.	-16%[46.1 µM]
55	COCCCN1C(=O)C(=O)/C(=C(/O)c2ccc(S(=O)(=O)N3CCCCC3)cc2)C1c1ccc(O)c(OC)c1 (stereo not drawn)	6%	3%	.	2%[46.1 µM]	-1%	5%	.	16%[46.1 µM]
56	N#Cc1ccc(CSc2nnc3ccccn23)cc1	8%	-1%	.	.	-6%	24%	.	.
57	CN(C)N1C(=O)/C(=C/c2ccco2)SC1=Nc1ccccc1	.	.	.	?	-9%	?	.	-3%
58	COc1ccc(C(=O)COC(=O)CCS(=O)(=O)c2ccc(C)cc2)c(OC)c1	.	9%	.	16%	15%	-5%	.	3%
59	CC(=O)c1ccc(N2C(=NC(=O)COc3ccccc3)SC3CS(=O)(=O)CC32)cc1 (stereo not drawn)	-1%	4%	.	.	14%	-13%	.	.
